mABHD4 FP: inhibits mouse alpha/beta hydrolase domain 4; purified mABHD4, FP-Rh probe fluorescence polarization; inhibition, % at 8.92 µM; Q8VD66; 370,000 compounds, 0.54% hits;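 active = inhibition exceeding the mean over every tested compound plus 3 SD, cut at about 30% in these data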;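 also: 0% = plate median of compound wells and 100% = S159A mutant with DMSO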
Target sequence (Q8VD66 whole entry, looked up, the tested form may be a part): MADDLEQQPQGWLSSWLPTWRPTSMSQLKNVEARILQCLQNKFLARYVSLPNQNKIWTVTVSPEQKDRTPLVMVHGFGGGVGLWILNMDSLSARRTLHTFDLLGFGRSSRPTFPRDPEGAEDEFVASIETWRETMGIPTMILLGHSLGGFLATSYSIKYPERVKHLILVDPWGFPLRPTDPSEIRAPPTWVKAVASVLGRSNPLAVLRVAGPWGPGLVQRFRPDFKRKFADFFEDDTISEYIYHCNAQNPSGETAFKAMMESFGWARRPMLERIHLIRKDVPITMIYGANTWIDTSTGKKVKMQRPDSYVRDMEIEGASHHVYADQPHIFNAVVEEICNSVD
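Assay system: Wild-type mouse ABHD4 protein | Medium: HEPES pH 7.0 buffer, 150 mM NaCl, 0.01% Pluronic F-127 | Incubation: Enzyme–compound pre-incubation 45 min, then probe 60 min, both 25 °C | Technique: Fluorescence polarization with parallel and perpendicular emission, 525/598 nm | Evaluation: % inhibition of FP-Rh probe binding versus controls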
TCR CD3 inh: inhibitors of human TCR-CD3 interaction; 360,000 compounds, 0.37% hits; TAMRA-labeled TCR probe fluorescence, biochemical; AID 651800; inhibition, % at 9.4 µM; in the data active = inhibition above about 19%;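 also: recombinant mutant TCR 2C K166C tagged with TAMRA read by polarization; 0% = receptor in buffer alone and 100% = receptor with positive control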
PRMT1 FP inh: inhibitors of human PRMT1; Q99873; recombinant PRMT1, activity-based probe fluorescence polarization; inhibition, % at 2.79 µM; 370,000 compounds, 1.3% hits;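 active = inhibition above about 21% made by adding two undisclosed values, limit read from the data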
Target sequence (Q99873 whole entry, looked up): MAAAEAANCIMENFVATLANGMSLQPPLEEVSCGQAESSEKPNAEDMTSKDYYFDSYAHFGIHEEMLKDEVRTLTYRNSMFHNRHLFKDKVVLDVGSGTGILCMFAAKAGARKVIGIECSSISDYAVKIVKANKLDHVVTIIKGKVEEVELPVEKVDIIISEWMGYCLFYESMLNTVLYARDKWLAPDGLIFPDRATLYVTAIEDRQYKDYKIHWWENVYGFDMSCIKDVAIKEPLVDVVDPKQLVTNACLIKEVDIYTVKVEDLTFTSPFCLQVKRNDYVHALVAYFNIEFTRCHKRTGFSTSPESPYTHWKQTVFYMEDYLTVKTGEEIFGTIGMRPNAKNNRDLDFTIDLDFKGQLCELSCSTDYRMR
TDP2 absorb: TDP2 (human) inhibition, absorbance primary screen | inhibition, % at 12.8 µM | AID 720702 | O95551 | recombinant TDP2, T5PNP hydrolysis, p-nitrophenol absorbance 415 nm | 370,000 compounds, 0.34% hits;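 active = inhibition above the mean of all tested compounds plus 3 SD, set per campaign, cut at about 25% in these data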;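 also: 0% = DMSO with enzyme and 100% = buffer with substrate but no TDP2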
Target sequence (O95551 whole entry, looked up): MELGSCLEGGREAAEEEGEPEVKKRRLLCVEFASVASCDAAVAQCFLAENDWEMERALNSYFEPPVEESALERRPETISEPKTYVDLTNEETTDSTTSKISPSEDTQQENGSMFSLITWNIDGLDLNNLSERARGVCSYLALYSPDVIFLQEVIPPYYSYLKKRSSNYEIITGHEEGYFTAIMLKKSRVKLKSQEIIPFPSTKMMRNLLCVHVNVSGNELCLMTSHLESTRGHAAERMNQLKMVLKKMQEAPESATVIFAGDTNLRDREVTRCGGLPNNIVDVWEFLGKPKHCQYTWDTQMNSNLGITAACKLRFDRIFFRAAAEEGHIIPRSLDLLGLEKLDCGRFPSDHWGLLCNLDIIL
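Assay system: Recombinant human TDP2 | Quantity: 120 nM TDP2 per well | Incubation: 2 h at 37 °C | Signal: Epi absorbance | Evaluation: Percent inhibition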
LEDGF integ inh: blocks HIV-1 LEDGF/p75-dependent DNA integration; TR-FRET IN-LEDGF/p75 DNA integration, Eu/Cy5; inhibition, % at 3.7 µM; 370,000 compounds, 0.64% hits;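 active = inhibition above the screen-wide mean plus 3 SD, cut at about 13% in these data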;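 also: signal is the Cy5 over europium emission ratio at 671 and 618 nm; 0% = plate median of compound wells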
MBD2 DNA inh: MBD2-methylated oligo binding inhibition; inhibition, % at 4.4 µM; Q9UBB5; TR-FRET, MBD2 binding to methylated oligonucleotide; 370,000 compounds, 0.31% hits; in the data active = inhibition above about 13%
NPR2 activator: GC-B (human) receptor activation | HEK293-GC-B cells, CNP EC30, cGMP TR-FRET; 0% at EC30 CNP, 100% saturating CNP | activation, % at 10 µM | 370,000 compounds, 0.11% hits;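 active = activation at 10 µM reaching about 35% in either raw or pattern-adjusted values, limit read from the data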
rCAG binder: binds r(CAG) RNA repeats | r(CAG) RNA repeat, TO-PRO-1 dye displacement fluorescence | inhibition, % at 3 µM | 370,000 compounds, 1.3% hits | AID 651821;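 active = inhibition above the plate cutoff, the mean of all test compounds on that plate plus 3 SD, cut at about 35% in these data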;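 also: 0% = DMSO alone and 100% = 100 µM mitoxantrone as full dye displacement; higher means more dye released from RNA so lower well fluorescence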
SIAE inh: blocks human sialic acid acetylesterase. SIAE FP-Rh probe binding, fluorescence polarization. inhibition, % at 9.66 µM. 370,000 compounds, 0.69% hits;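 active = inhibition above a cutoff: mean of compounds within the control limits plus 3 SD of those, cut at about 17% in these data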;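 also: 0% = plate median of compound wells and 100% = probe without SIAE protein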
Numbers without * were called inactive.

Start of the listing, in advance, 3 compounds:
SMILES	mABHD4 FP	TCR CD3 inh	PRMT1 FP inh	TDP2 absorb	LEDGF integ inh	MBD2 DNA inh	NPR2 activator	rCAG binder	SIAE inh
C[C@H](NC(=O)c1[nH]cnc1C(=O)Nc1ccc(CNC(=O)OC(C)(C)C)cc1)C(=O)OC(C)(C)C	-37	4	-1	-6	0	2	9	6	-12
CC(C)(C)NC(=O)/C(=C\c1cccnc1)NC(=O)c1ccco1	-1	6	-1	-3	0	-1	-4	1	6
Cc1ccc(N2C(=O)C3CCCN3C2=S)c(C)c1 (stereo unspecified)	-2	5	3	0	2	-2	1	3	-8

All compounds of this part, previewed entries included:
SMILES	mABHD4 FP	TCR CD3 inh	PRMT1 FP inh	TDP2 absorb	LEDGF integ inh	MBD2 DNA inh	NPR2 activator	rCAG binder	SIAE inh
C[C@H](NC(=O)c1[nH]cnc1C(=O)Nc1ccc(CNC(=O)OC(C)(C)C)cc1)C(=O)OC(C)(C)C	-37	4	-1	-6	0	2	9	6	-12
CC(C)(C)NC(=O)/C(=C\c1cccnc1)NC(=O)c1ccco1	-1	6	-1	-3	0	-1	-4	1	6
Cc1ccc(N2C(=O)C3CCCN3C2=S)c(C)c1 (stereo unspecified)	-2	5	3	0	2	-2	1	3	-8
Cc1nn(Cc2ccccc2Cl)c(C)c1NC(=O)CCCn1nc([N+](=O)[O-])c(Cl)c1C	-2	-10	0	-3	3	11	0	-3	-9
O=C(NC1CCCC1)C1CCN(C(=O)c2ccc(Cl)cc2Cl)CC1	-4	3	-1	8	-1	-5	0	-5	3
O=C(Nc1cccc(Cl)c1)/C(=C\c1cccnc1)NC(=O)c1ccco1	1	0	-2	0	4	1	0	-1	4
CCCCCc1ccc(CC(=O)O)cc1	3	4	-2	7	-1	2	-1	1	-4
COC(=O)c1cc(=O)n(-c2ccc(C(F)(F)F)cc2)[nH]1	22	0	4	0	-2	5	1	61*	2
Cc1cc(C)c(C(=O)N2CCCC(CNC(=O)C3(c4ccc(Cl)cc4)CC3)C2)c(=O)[nH]1 (stereo unspecified)	5	1	1	-6	-11	1	1	-4	-3
Cc1nn(Cc2ccccc2)c(C)c1NC(=O)CSc1nnc(-c2cc(Cl)ccc2O)n1C	0	-7	-2	-24	1	-2	5	7	-1
CCOC(=O)c1sc(NC(=O)CC2OC(=O)c3ccccc32)nc1C (stereo unspecified)	0	4	-1	-6	0	-5	-5	0	-11
CN(C)CCN(C(=O)C1CCCCC1)c1nc2cc3c(cc2s1)OCO3	8	-1	3	11	-2	4	-6	-10	1
COC(=O)[C@H](CC(C)C)NS(=O)(=O)N(Cc1ccccc1)[C@@H](CC(C)C)C(=O)OC	-5	-7	4	0	-3	5	-10	-11	10
Nc1ccccc1Nc1cc(-c2ccccc2)nn1-c1cccc(Cl)c1	14	6	9	-7	0	-2	-3	9	12
N#Cc1ccccc1OCC(=O)Nc1ccc2c(c1)OCCCO2	0	2	0	4	2	-1	-4	0	1
COc1ccc(Oc2coc3cc(O)ccc3c2=O)cc1	-5	-9	0	-10	0	8	3	4	7
Cc1sc2ncn(CC(=O)NCCCC(=O)N3CCN(c4ccccc4)CC3)c(=O)c2c1C	-2	5	1	9	-3	-2	-3	-3	11
COC(=O)CCC(=O)OC1(C)C(=O)C=C2C=C(C3CC3)N(c3ccccc3)C=C2C1=O (stereo unspecified)	13	2	10	12	1	-3	0	4	7
CC(=O)Nc1ccc(-c2csc(-c3cccnc3)n2)cc1	-3	-1	7	-7	1	-2	-3	0	-10
COc1cccc(/C=N\n2c(C)nnc2C)c1OC	-12	-2	10	0	0	8	2	6	-5
O=[N+]([O-])c1ccc(-c2ccc(/C=N/c3c(-c4ccco4)nc4ccccn34)o2)cc1	23	0	23*	2	8	0	-4	7	5
CCOC(=O)c1sc(NC(=O)CN2CCN(c3ccccc3)CC2)nc1C	-3	-6	0	-6	3	-2	-1	0	-2
COCCS(=O)(=O)N(Cc1ccccc1)[C@H](C(=O)OC)C(C)C	25	-2	4	-2	-1	0	-6	-3	4
Cc1cccc(CC2CC(=O)N(c3ccccc3)C2=O)c1 (stereo unspecified)	2	-1	2	7	-1	1	-2	-1	1
Cc1cc(C)cc(OC(C)C(=O)Nc2ccc3c(c2)n(C)c(=O)n3C)c1 (stereo unspecified)	-3	-8	4	-10	-2	1	-3	-4	5
COc1ccc(-c2c(-c3cc(OC)cc(OC)c3)sc3ccc(OC)cc23)cc1	-11	15	2	0	-2	-2	1	9	-5
O=C(NC1c2ccccc2-c2ccccc21)N1CCOCC1	5	-7	-1	1	0	0	2	-2	0
COc1ccc(-c2nnc(-c3ccc4ccccc4c3)o2)cc1	-11	-4	7	-4	2	8	-1	4	-5
CC1(OC(=O)CCc2ccccc2)C(=O)C=C2C=C3CCCN3C=C2C1=O (stereo unspecified)	22	9	11	8	20*	-3	0	19	6
Cc1cccc(N2C(=O)CC(N(O)c3ccccc3)C2=O)c1 (stereo unspecified)	1	4	3	4	6	-2	-2	4	-2
COCCOc1cc(N)c(Cl)cc1Cl	-3	1	1	4	-3	0	-2	3	1
CN(Cc1ccco1)C(=O)Cn1nc(-c2ccc(Cl)cc2)ccc1=O	2	-2	-1	-1	-1	-3	4	-6	1
CCCCC1=CC2=CC(=O)C(C)(OC(=O)CC)C(=O)C2=CN1c1cccc(C#N)c1 (stereo unspecified)	17	-4	16	-1	6	4	3	24	2
CCOC(=O)c1c(-c2ccccc2)nnn1-c1nc(OC)nc(N2CCOCC2)n1	-1	-2	0	-9	-5	0	-1	0	0
COc1cccc(/C=C/C(=O)OCC(=O)Nc2ccccc2Sc2ccccc2)c1	-9	-9	2	-1	-1	6	3	3	-2
CC(=O)Nc1ccc(S(=O)(=O)N[C@@H](C)C(=O)OCC(=O)c2ccc(Br)s2)cc1	2	-5	-1	3	0	1	-5	5	6
CN1CCN(C(=O)c2ccc3c(c2)NC(=O)/C(=C/c2ccccc2)S3)CC1	8	4	-2	5	0	-3	-5	-2	4
O=C1C=C(NCc2ccccc2)CCC1	1	-3	2	6	1	-3	-3	-2	-7
O=[N+]([O-])c1ccccc1S(=O)(=O)Oc1ccc(/C=N/n2cnnc2)cc1	4	-1	-1	4	0	-2	5	18	-5
O=C(CSc1ncnc2c1cnn2-c1ccc(F)cc1)NCc1ccc2c(c1)OCO2	2	2	3	2	-5	-4	1	-1	2
O=C(O)CN1C(=O)SC(Nc2ccc(Cl)cc2)C1=O (stereo unspecified)	4	11	0	2	0	3	0	5	4
CCCCNC(=O)c1onc(CCl)c1C(=O)OC	4	-2	-2	4	1	-6	-1	-3	3
Cc1ccc(SCCNC(=O)c2ccc([N+](=O)[O-])c(C)c2)cc1	-3	1	12	-10	-7	4	1	-2	0
O=C(Cc1ccc(Cl)cc1)Nc1ncc([N+](=O)[O-])s1	-1	3	-3	6	0	-1	4	6	-3
O=C(CSc1nc(O)cc(=O)[nH]1)C1CC1	-7	0	3	6	1	3	-2	1	6
COc1cc(C)c(NC(=S)Nc2cccc(Cl)c2)cc1OC	1	-2	1	-11	10	2	2	3	1
CC(CCc1ccco1)NC(=O)c1cc2c(-c3ccccc3F)nn(C)c2s1 (stereo unspecified)	-57	-10	47*	-1	13	7	4	11	-29
CCOC(=O)CSc1nc(N2CCOCC2)c2c(c1C#N)CC(C)(C)OC2	-1	1	-1	0	4	-2	18	-8	1
O=C(CSc1nc2ccccc2o1)Nc1nccs1	8	0	3	-10	3	2	-1	7	-8
CCOC(=O)C1=NN(c2ccc(OC)cc2)C2C(=O)N(c3ccccc3OC)C(=O)C12 (stereo unspecified)	2	6	-2	1	0	0	1	3	11
O=C(Nc1ccccc1)C1=C(O)CC(c2ccoc2)CC1=Nc1ccccc1 (stereo unspecified)	8	2	9	6	-2	0	-1	14	6
Cc1nn(C)cc1C(=O)Nc1c(C)nn(Cc2ccccc2Cl)c1C	4	-5	2	3	-1	4	-4	-3	-7
CCc1ccccc1NC(=O)CNC(=O)c1n[nH]c(=O)c2ccccc12	2	0	0	14	-2	9	-5	1	-5
CC1=CN(S(=O)(=O)c2ccc(C)cc2)C[C@@H]2[C@H]3CC[C@H](C3)[C@H]12	12	-4	2	5	-1	3	-3	2	2
CC(C)(CN1CCOCC1)NS(=O)(=O)c1ccccc1	2	-9	1	-3	-5	0	5	-6	-1
CCC(=O)c1ccccc1OCCN1CCN(Cc2ccccc2)CC1	20	1	0	16	4	4	-2	-10	11
C=CCn1c(SCC(=O)c2ccc(Br)cc2)nnc1C(CC(C)C)NC(=O)c1cccs1 (stereo unspecified)	-3	6	-1	6	-1	0	-9	2	2
O=[N+]([O-])c1ccccc1C=NN1CCCCCC1	12	12	26*	-1	3	-7	-4	7	0
C/C(CC(=O)NCC(C)C)=N\NC(=O)COc1cc(C)c(Br)cc1Br	1	1	-4	0	-4	-2	14	1	1
COc1ccc(-c2cc(-c3nnc(-c4ccncc4)o3)c3ccccc3n2)cc1	-4	-3	4	2	-1	7	5	2	-8

4 entries from above, set out differently.
> O=C(Nc1ccccc1)C1=C(O)CC(c2ccoc2)CC1=Nc1ccccc1 (stereo unspecified)
  mABHD4 FP: 8	TCR CD3 inh: 2	PRMT1 FP inh: 9	TDP2 absorb: 6	LEDGF integ inh: -2	MBD2 DNA inh: 0	NPR2 activator: -1	rCAG binder: 14	SIAE inh: 6
> Cc1nn(C)cc1C(=O)Nc1c(C)nn(Cc2ccccc2Cl)c1C
  mABHD4 FP: 4	TCR CD3 inh: -5	PRMT1 FP inh: 2	TDP2 absorb: 3	LEDGF integ inh: -1	MBD2 DNA inh: 4	NPR2 activator: -4	rCAG binder: -3	SIAE inh: -7
> CCc1ccccc1NC(=O)CNC(=O)c1n[nH]c(=O)c2ccccc12
  mABHD4 FP: 2	TCR CD3 inh: 0	PRMT1 FP inh: 0	TDP2 absorb: 14	LEDGF integ inh: -2	MBD2 DNA inh: 9	NPR2 activator: -5	rCAG binder: 1	SIAE inh: -5
> CC1=CN(S(=O)(=O)c2ccc(C)cc2)C[C@@H]2[C@H]3CC[C@H](C3)[C@H]12
  mABHD4 FP: 12	TCR CD3 inh: -4	PRMT1 FP inh: 2	TDP2 absorb: 5	LEDGF integ inh: -1	MBD2 DNA inh: 3	NPR2 activator: -3	rCAG binder: 2	SIAE inh: 2

(continued)
SMILES	mABHD4 FP	TCR CD3 inh	PRMT1 FP inh	TDP2 absorb	LEDGF integ inh	MBD2 DNA inh	NPR2 activator	rCAG binder	SIAE inh
CC(C)CCNC(=O)[C@H](Cc1ccccc1)N1Cc2ccccc2C1=O	1	7	-3	34*	-1	1	2	-6	-1
COc1ccc(-c2c(NCCc3ccccc3)c(=O)c2=O)cc1	3	4	-1	-10	0	0	-3	-2	-2
Cc1cc(C)cc(N(C(C)C(=O)NCc2ccc3c(c2)OCO3)S(C)(=O)=O)c1 (stereo unspecified)	0	-1	-1	-7	7	1	4	-6	-3
CC1CC(C)CN(CC(C)(C)NS(=O)(=O)c2ccccc2)C1 (stereo unspecified)	4	-2	-1	3	5	1	4	-3	1
O=C(c1ccccc1O)N1N=C(C(F)(F)F)CC1(O)c1ccc([N+](=O)[O-])cc1 (stereo unspecified)	11	4	-6	-20	4	-3	2	12	4
Cc1cccc(N2C(=O)C3CCCN3C2=S)c1C (stereo unspecified)	1	0	4	0	1	1	7	5	-5
CC1=CC(C)C2C(=O)N(CCCN(C)C)C(=O)C2C1 (stereo unspecified)	2	-4	0	2	0	-4	4	-3	4

Source: PubChem

Only part of the results is shown; the hit share may differ from the screen's.
